Source: PubChem BioAssay (National Center for Advancing Translational Sciences (NCATS))
IP6K1 inh – Primary qHTS assay for small molecule inhibitors of Inositol hexaphosphate kinase 1 (IP6K1); activity change, % (series mostly up to about 58 µM); Inositol hexakisphosphate kinase 1 (Homo sapiens), Q92551; IP6K1 kinase, ADP-Glo luminescence, 2 h; stronger effect = lower value; 0.81% of 140,000 active; AID 1645851, 2021; in the data active = activity change below about -25%
Target sequence (Q92551 whole entry, looked up): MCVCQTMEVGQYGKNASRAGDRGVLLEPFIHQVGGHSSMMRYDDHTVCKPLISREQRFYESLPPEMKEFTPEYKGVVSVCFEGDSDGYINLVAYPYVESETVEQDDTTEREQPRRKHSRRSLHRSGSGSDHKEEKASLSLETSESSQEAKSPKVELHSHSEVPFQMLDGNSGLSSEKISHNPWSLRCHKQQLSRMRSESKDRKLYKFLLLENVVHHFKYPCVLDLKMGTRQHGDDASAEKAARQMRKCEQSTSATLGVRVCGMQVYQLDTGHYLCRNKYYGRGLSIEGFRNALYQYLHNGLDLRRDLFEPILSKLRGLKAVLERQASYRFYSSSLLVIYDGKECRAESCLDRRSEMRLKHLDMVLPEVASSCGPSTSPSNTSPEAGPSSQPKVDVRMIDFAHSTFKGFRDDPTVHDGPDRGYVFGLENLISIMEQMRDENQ
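ADP-Glo luminescence measures ADP made by human IP6K1 during a 2 h RT reaction with ATP/IP6 (mix at 1.3 mM/130 uM); top library doses 57.5 and 19.1 uM final.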
3T3 cytotox – Cytotoxic Profiling in NIH 3T3 Cell Line of Diverse Libraries Using Quantitative High-Throughput Screening; NIH 3T3 viability, CellTiter-Glo ATP luminescence, 48-72 h; 4.3% of 94,000 active; Potency, µM (doses to about 96.7 µM), for inactives: at the highest dose activity change, negative = cytotoxicity, most hits filed as inhibitors; note: potency is the fitted concentration of half-maximal effect; nearly all actives have a fitted effect of over 55% in size
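ATP-dependent luminescence (CellTiter-Glo) served as the viability signal for NIH 3T3 cells treated with compound for 48 or 72 hr at 37 °C.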
Luciferase inh – Firefly luciferase inhibition profiling of diverse chemical library using quantitative high-throughput screening. AID 1347043, 2019. 2.5% of 76,000 active. Potency, µM (series often up to 115 µM), for the others: at the highest dose activity change, negative = inhibition, most hits filed as inhibitors. purified P. pyralis luciferase, luminescence, biochemical. Luciferin 4-monooxygenase (Photinus pyralis), P08659; note: potency is the fitted concentration of half-maximal effect; nearly all actives have a fitted effect of over 65% in size
Target sequence (P08659 whole entry, looked up): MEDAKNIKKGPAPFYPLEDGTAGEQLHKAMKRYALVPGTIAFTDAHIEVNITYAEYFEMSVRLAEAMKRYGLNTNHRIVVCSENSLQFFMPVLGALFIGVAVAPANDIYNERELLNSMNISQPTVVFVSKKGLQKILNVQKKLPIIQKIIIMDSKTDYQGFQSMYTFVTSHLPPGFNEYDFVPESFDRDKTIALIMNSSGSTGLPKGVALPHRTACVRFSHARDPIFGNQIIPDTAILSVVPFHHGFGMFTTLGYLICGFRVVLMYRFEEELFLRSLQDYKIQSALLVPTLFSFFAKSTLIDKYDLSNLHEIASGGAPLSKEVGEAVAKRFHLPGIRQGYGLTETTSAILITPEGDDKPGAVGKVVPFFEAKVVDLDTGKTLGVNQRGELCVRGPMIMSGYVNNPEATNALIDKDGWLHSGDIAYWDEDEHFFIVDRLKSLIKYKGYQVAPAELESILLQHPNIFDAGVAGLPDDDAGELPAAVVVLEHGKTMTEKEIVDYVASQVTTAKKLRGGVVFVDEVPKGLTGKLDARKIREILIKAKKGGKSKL
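Cell-free enzyme assay, 10nM P. pyralis luciferase, luciferin and ATP each at 10uM. Inhibition profiled over a 6-point titration, read as luminescence.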
SNCA viab count – GF-AFC viability counterscreen for inhibitors of alpha-synuclein gene (SNCA) expression. HEK-293-SNCA-luc viability, GF-AFC fluorescence, 24 h. Potency, µM (highest dose often 57.1 µM), without a hit: at the top dose activity change, negative = cytotoxicity, most hits filed as cytotoxic. 0.12% of 150,000 active;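 note: potency is the fitted concentration of half-maximal effect; 0% = DMSO-treated cells and -100% = medium-only wells without cells; nearly all actives have a fitted effect of over 30% in size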
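Cytotoxicity counterscreen: after 24 h compound treatment of genome-edited SNCA-luciferase HEK-293 cells, live-cell protease substrate GF-AFC read by fluorescence after 30 min; activity scaled between DMSO (0%) and medium-only (-100%), curves Hill-fitted.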
HEK cytotox – Cytotoxic Profiling in HEK 293 Cell Line of Diverse Libraries Using Quantitative High-Throughput Screening; 6.6% of 94,000 active; Potency, µM (top dose mostly 115 µM), for the others: top-dose activity change, negative = cytotoxicity, usual class: inhibitors; HEK 293 viability, ATP luminescence (CellTiter-Glo), 48-72 h; note: potency is the fitted concentration of half-maximal effect; nearly all actives have a fitted effect of over 60% in size
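HEK 293 seeded at 250 cells/well receive compound via pintool. After 48 or 72 hr at 37 degree Celsius, 5% CO2 and 95% humidity, CellTiter-Glo is dispensed and luminescence read following 10 min at room temperature.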
SNCA expr inh – Primary qHTS assay for inhibitors of alpha-synuclein gene (SNCA) expression | Potency, µM (highest dose often 57.2 µM), without a hit: at the highest dose activity change, negative = inhibition, hits mostly inhibitors | 0.17% of 140,000 active | HEK-293 SNCA-luciferase knock-in, luminescence, 24 h;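 note: potency is the fitted concentration of half-maximal effect; plate controls were DMSO cells for no effect and cell-free wells for full effect; nearly all actives have a fitted effect of over 45% in size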
* = called active by the depositor; i = inactive; ? = inconclusive; / = not tested or not shown; [ ] = remark or other dose. Unless noted, calls come from the whole dose curve; as a rule, active = well fitted curve in the direction sought with a large enough effect; inconclusive = small, poorly fitted or top-dose-only effect, or another doubt; inactive = no such curve, though single readings can be large; an effect the other way counts as inactive or inconclusive. Unless noted, % is set by controls: 0 for no effect and ±100 for the full control effect. These rows are one share of the data (hit frequency here may not be typical).

#	smiles	IP6K1 inh	3T3 cytotox	Luciferase inh
1	N#Cc1cccc(NC(=O)N[C@H]2CO[C@H]3[C@@H]2OC[C@@H]3Nc2nccc(-c3cccs3)n2)c1	4	-13%	13%
2	CC1(c2noc(-c3ccccc3)n2)CCN(C(=O)CCC(=O)N2CC(=O)Nc3ccccc32)CC1	-25	?	0%
3	COc1ccc(-c2ccc3nc(-c4cc(F)cc(F)c4)oc3c2)c(OC)c1OC	-3	-21%	-13%
4	CC(C)c1ccc(NC(=O)CN2C(=O)C(c3ccccc3)=NC2(C)C)cc1	16	-24%	-8%
5	CC(=O)Nc1ccc(CNC2(Cc3cc(CN4CCOCC4)on3)COC2)cc1	-9	i	-3%[172 µM]
6	O=C(NCC1Cn2cccc2C(=O)N1Cc1ccccc1)c1ccncc1 (stereo not given)	-3	-11%	-3%
7	Cc1noc(-c2cccc(F)c2)c1C(=O)NCCSCc1ccccc1	-5	?	-15%
8	CC(C)CNC(=O)NCC1Cn2cccc2C(=O)N1Cc1ccccc1 (stereo not given)	-1	-8%	-4%
9	CN(C)c1ccc(C(=O)N2CCC3(CC2)NC(=O)N(c2ccc(F)cc2)N3)cc1	-13	?	-4%
10	O=C(CCC1CCN(S(=O)(=O)c2ccccc2)CC1)NC1CCS(=O)(=O)C1 (stereo not given)	6	0%	1%
11	CCN(CC)C(=O)CC[C@@H]1CNC(=O)[C@@H]2C[C@H](NC(=O)NC(C)C)CN12	6	-28%[174 µM]	0%[172 µM]
12	CCCNC(=O)C1COC2(CCN(C(=O)Cc3ccccc3)CC2)N1C(=O)c1ccc(OC)cc1 (stereo not given)	-10	0%	3%
13	CCOCCNC(=O)CNC(=O)c1cccc(-c2ccsc2)c1	1	-11%[138 µM]	/
14	CCCn1ccc2oc(C)c(C(=O)N3CCN(c4ccc(F)cc4)CC3)c2c1=O	3	-2%	?
15	CCn1ccc2oc(C)c(C(=O)NCc3ccccc3Cl)c2c1=O	-1	?	-19%

#	SNCA viab count	HEK cytotox	SNCA expr inh
1	-2%	3%	5%
2	1%	?	-25%
3	-2%	-1%	-2%
4	-22%[12.5 µM]	?	14%
5	4%[87.6 µM]	4%[172 µM]	-15%[87.6 µM]
6	-1%	0%	5%
7	6%	?	-14%
8	-9%	-9%	10%
9	1%	-26%	-6%
10	-7%	3%	-17%
11	-1%[87.6 µM]	-17%[172 µM]	41%[activator][87.6 µM]
12	3%	i	-11%
13	5%[12.5 µM]	-2%[172 µM]	-3%[87.6 µM]
14	3%	-29%	103%[activator]
15	-13%	?	-8%

Next section.
#	smiles	IP6K1 inh	3T3 cytotox	Luciferase inh
16	Fc1cccc(Cc2noc(-c3nc(-c4ccccc4F)no3)n2)c1	-10	-27%	?
17	O=C(NC1CCCN(c2cc(-c3ccc(F)cc3)[nH]n2)C1)c1cc2ccccc2[nH]1 (stereo not given)	0	?	20µM*
18	CC(=O)N1CCC(N[C@@H]2CO[C@H](CNS(=O)(=O)c3ccc(C)cc3)[C@H]2O)CC1	3	0%[174 µM]	-4%[172 µM]
19	COCCCN1C[C@@H]2CN(c3ncnc4c3CCC4)C[C@]2(C(=O)O)C1	3	-1%	2%
20	CCOCC(=O)N1CCCC1c1nc(CCOc2cccc(C)c2)no1 (stereo not given)	-1	i	0%
21	C=CCc1ccc(C(=O)N2CCCC3(CCC(=O)N(C4CC4)C3)C2)cc1 (stereo not given)	-7	-9%	5%
22	COc1cc(OC)cc(-c2onc(C)c2C(=O)NCCCCc2ccccc2)c1	-9	?	-3%
23	Cc1ccc(CN2CCN(c3nc4ccccc4o3)CC2CCO)cc1 (stereo not given)	-7	-28%	?
24	CC(NC(=O)c1ccc2cccc(F)c2n1)c1ccccc1-n1cccn1 (stereo not given)	0	?	35µM*
25	CN1CCNc2nc(COc3ccc(F)cc3)n(Cc3ccccc3)c2C1=O	-3	-20%[138 µM]	-15%[172 µM]
26	CN1[C@@H](CCC(=O)NCc2ccco2)CNC(=O)[C@@H]2[C@H]1CCN2Cc1ccc(C(=O)O)cc1	15	3%	-3%
27	COc1ccc(-c2cc(N3CCCC(NC(=O)c4ccc(OC)cc4OC)C3)n[nH]2)cc1 (stereo not given)	0	?	13µM*
28	O=C(c1ccc(Cl)nc1)N1CCN(Cc2ccccc2-c2cccnc2)CC1	-8	-30%	/
29	CCN(CC)C(=O)CC[C@@H]1CNC(=O)[C@@H]2C[C@H](NC(=O)c3ccc(N(C)C)cc3)CN12	-7	-2%[138 µM]	10%[172 µM]
30	Cc1noc(C)c1-c1cc2cc(C(C)C)oc2c(N2CCN(C)C(=O)C2)n1	-14	?	11%[172 µM]

#	SNCA viab count	HEK cytotox	SNCA expr inh
16	-4%	?	34%[activator]
17	?	40µM*	?
18	-6%[87.6 µM]	-1%[172 µM]	-22%[87.6 µM]
19	0%	5%	16%
20	8%	-4%	5%
21	0%	4%	-2%
22	8%	?	-25%
23	-2%	45µM*	68%[activator]
24	-12%	?	-5%
25	5%[87.6 µM]	?	-22%[87.6 µM]
26	2%	i	-15%
27	?	45µM*	38%[activator]
28	4%[12.5 µM]	?	4%
29	2%[87.6 µM]	i	3%[87.6 µM]
30	-4%[87.6 µM]	?	39%[activator][87.6 µM]

Next part
#	smiles	IP6K1 inh	3T3 cytotox	Luciferase inh
31	CCOc1ccc(C(=O)N2CCC(c3nnc(Cn4cccn4)n3C)CC2)o1	-20	-1%	-5%
32	Cc1ccc(CN2CC[C@@H]3[C@H]2C(=O)NC[C@H](CCC(=O)NCc2ccc(F)cc2)N3C)cc1	2	?	0%
33	CN1CCN(C(=O)CC[C@@H]2CNC(=O)[C@@H]3C[C@H](NC(=O)Nc4ccccc4)CN23)CC1	5	-15%[174 µM]	-18%[172 µM]
34	COc1ccccc1-c1ccnc(N[C@H]2CO[C@H]3[C@@H]2OC[C@@H]3NS(=O)(=O)c2cccs2)n1	-7	?	-4%
35	COc1ccc(C(=O)N2CCC3(CC2)NC(=O)N(c2ccc(F)cc2)N3)cc1F	14	?	4%
36	Cc1ccc(-c2cn(CC3CCCN(c4cc(C)nc(N)n4)C3)nn2)cc1 (stereo not given)	3	?	3%
37	CCCN1CC(Oc2ccc(-c3noc(-c4cccnc4)n3)cc2)C1	-4	?	10%
38	CN(C(=O)CC(c1ccccc1)c1ccc(Cl)cc1)C1CCOCC1 (stereo not given)	-2	-17%	-4%
39	O=C(CCc1ccc(O)cc1)c1c(O)cc(O)cc1O[C@@H]1O[C@H](CO)[C@H](O)[C@H](O)[C@H]1O	/	/	/
40	Cc1ncccc1C(=O)N1CCC(N2C[C@H](O)C[C@H]2C(=O)NC2CCCCC2)CC1	23	i	-2%
41	COc1ccc(-c2onc(C)c2C(=O)NCCc2cccc(OC)c2)cc1	9	-26%	-8%
42	Cc1ccc2[nH]c(=O)c(CN3CCCN(c4ccncc4)CC3)cc2c1	-3	-21%	-4%
43	COC(=O)CNC(=O)C1CCc2nnc(CNC(=O)Nc3cccnc3)n21 (stereo not given)	12	i	/
44	C=CC(=O)N1CC(N2CCN(C(=O)CNc3cc(C4CC4)c(Cl)cc3O)CC2)C1	-10	/	/
45	Cc1ccccc1-c1nc2cnccn2c1NCCC(=O)N1CCC(C)CC1	19	-2%	-6%

#	SNCA viab count	HEK cytotox	SNCA expr inh
31	5%	-2%	1%
32	-1%	?	-4%
33	8%[87.6 µM]	-4%[172 µM]	11%[87.6 µM]
34	-1%	-8%	-23%
35	-12%	?	-12%
36	-13%	?	4%
37	4%	?	37%[activator]
38	2%	?	-30%
39	-2%	/	-16%
40	9%	i	-3%
41	-1%	?	8%
42	-2%	?	-2%
43	2%	i	-9%
44	39%	/	/
45	14%	-11%	?

Full records, looked up by structure. Values in the order: IP6K1 inh	3T3 cytotox	Luciferase inh	SNCA viab count	HEK cytotox	SNCA expr inh
Cc1ccccc1-c1nc2cnccn2c1NCCC(=O)N1CCC(C)CC1 is listed as 19	-2%	-6%	14%	-11%	?
CN(C(=O)CC(c1ccccc1)c1ccc(Cl)cc1)C1CCOCC1 (stereo not given) is listed as -2	-17%	-4%	2%	?	-30%
Cc1ccc(CN2CC[C@@H]3[C@H]2C(=O)NC[C@H](CCC(=O)NCc2ccc(F)cc2)N3C)cc1 is listed as 2	?	0%	-1%	?	-4%

Next records:
#	smiles	IP6K1 inh	3T3 cytotox	Luciferase inh
46	COCCN1CCNc2nc(COc3ccc(Cl)cc3OC)n(Cc3ccccc3)c2C1=O	-4	-34%	-21%
47	COc1cccc(CNC(=O)c2c(C)noc2-c2cccc(F)c2)c1	23	?	-1%
48	Cc1cccc(OCCc2noc(C3CCN(C(=O)NC(C)(C)C)C3)n2)c1 (stereo not given)	20	?	-9%
49	O=C(Nc1ccc(F)cc1)c1ccc2cncn2c1	5	?	?
50	O=C(c1ccc(Cn2cnnn2)cc1)N1CCC2(CC1)[C@H](O)C[C@@H]2OCCO	17	-20%	4%
51	CN(CCc1ccccn1)[C@H]1[C@@H]2OC[C@@H](O2)[C@@H](NC(=O)Nc2cccc(C#N)c2)[C@@H]1O	2	0%[174 µM]	-13%[172 µM]
52	O=C(NC1CCCCC1)N1CCCC(CN2CCCC2)CC1 (stereo not given)	-1	-28%	1%
53	Cc1sc2ccn(C)c(=O)c2c1C(=O)NCc1ccc(F)cc1Cl	4	i	-7%
54	CC(=O)N1c2ccccc2C2(O)CC3C(=O)NC(CC(C)C)C(=O)N3C12 (stereo not given)	7	/	/
55	COc1ccc(C(C)NC(=O)c2c(C)sc3ccn(C)c(=O)c23)cc1 (stereo not given)	6	-5%	1%
56	O=C(COc1ccc(F)cc1)N1CCC2(CC1)NC(=O)N(c1ccccc1Cl)N2	-3	?	-2%
57	Cc1cccc(-c2noc(CCC(=O)N3CCCC4(CCNCC4)CC3)n2)c1	-14	?	-7%
58	CC(CNC(=O)c1cc(CN2CCOCC2)on1)c1ccccc1 (stereo not given)	-2	-4%	-3%
59	Cc1ccc(Cl)c(C(=O)N2CCC3(CC2)[C@H](O)C[C@@H]3OCCO)c1	-10	i	0%
60	COCCN1C(=O)c2cccn2CC1CNC(=O)CCC1CCCC1 (stereo not given)	2	-5%	-4%

#	SNCA viab count	HEK cytotox	SNCA expr inh
46	-6%	?	5%
47	10%	?	7%
48	3%[12.5 µM]	?	?
49	-2%[87.6 µM]	?	76%[activator][87.6 µM]
50	4%	-6%	7%
51	-27%[87.6 µM]	i	-7%[87.6 µM]
52	5%	-31%	7%
53	-4%	4%	3%
54	12%	/	/
55	5%	?	-36%
56	-24%	?	?
57	-16%	?	22%
58	7%	-4%	-9%
59	-1%	-3%	2%
60	-5%	-4%	-24%
